Screening results as filed in PubChem BioAssay.
VDR inh = Inhibitors of the vitamin D receptor (VDR): qHTS; Vitamin D3 receptor (Homo sapiens), P11473; 400,000 compounds, 0.93% hits; VDR-SRC2-3 peptide fluorescence polarization, 2 h; AID 504847, 2011; Potency, µM, for inactives: max response, negative = inhibition, usual class: inhibitors; active means well fitted inhibition curve with a large enough effect; inconclusive means small, poorly fitted or top-dose-only effect, or another doubt; inactive means no such curve, though single readings can be large or run the other way; further: series mostly up to about 120 µM
Target sequence (P11473 whole entry, looked up): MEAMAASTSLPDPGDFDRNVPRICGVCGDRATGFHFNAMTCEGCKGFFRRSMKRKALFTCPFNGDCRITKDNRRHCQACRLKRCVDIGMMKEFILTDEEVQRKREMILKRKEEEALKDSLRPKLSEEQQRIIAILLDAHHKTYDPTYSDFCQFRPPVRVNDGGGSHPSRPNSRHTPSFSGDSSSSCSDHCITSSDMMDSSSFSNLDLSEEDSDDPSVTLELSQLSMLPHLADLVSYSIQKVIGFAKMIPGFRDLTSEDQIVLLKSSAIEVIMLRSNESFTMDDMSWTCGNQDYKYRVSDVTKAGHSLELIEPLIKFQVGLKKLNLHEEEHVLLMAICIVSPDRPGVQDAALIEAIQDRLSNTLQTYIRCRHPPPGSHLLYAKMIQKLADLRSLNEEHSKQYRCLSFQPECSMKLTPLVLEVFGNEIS
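Compounds are added to VDR with labelled SRC2-3 coactivator peptide and held 2 h at room temperature. Inhibition of the VDR–peptide interaction is then read as a change in fluorescence polarization.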
The depositor's hits bear a star; ? = inconclusive; & = joins results of further samples. On the % scale 0 is the no-effect control and ±100 the full control effect; potency means the concentration at half of the fitted maximal effect. The list is partial (hit frequency here may not be typical).

canonical_smiles,VDR inh
CCc1ccccc1NC(=O)N1CCc2c([nH]c3ccccc23)C1c1ccc(C)cc1 (centres undefined),9.4%
Cc1cccc(NC(=O)Cn2c(=O)oc3cc(S(=O)(=O)N4CCCC4)ccc32)n1,-11.0%
COc1cccc(-n2c(SCC(=O)NCCC3=CCCCC3)nc3n[nH]c(C)c3c2=N)c1,-15.0%
O=C(O)c1ccc(CSc2nnc(SCc3ccccc3)s2)cc1,-4.9%
O=C(Nc1nnc(C2=COCCO2)o1)c1ccc([N+](=O)[O-])cc1,11.5%
COc1ccc(Cn2ccc3nc(C)c(C(=O)Nc4ccc(F)cc4)cc3c2=O)cc1,13.2%
O=C(CCC(=O)c1ccccc1)Nc1ccccc1,-1.4%
CCOC1CCCCC1NS(=O)(=O)c1ccc(Cl)cc1 (centres undefined),-1.3%
Cc1cc(C(=O)NCC(c2cccs2)N2CCOCC2)ccc1[N+](=O)[O-] (centres undefined),-14.6%
N#C/C(=N\Nc1ccc(Br)cc1)C(=N)N1CCOCC1,3.1%
Cn1c(SCC(=O)Nc2cccc(S(=O)(=O)NC3=NCCCCC3)c2)nnc1-c1ccccc1,-10.3%
COc1ccc(Sc2nc(-c3ccccn3)ncc2OC)cc1,16.5%
CCOc1cccc2sc(N(Cc3cccnc3)C(=O)c3ccc(C#N)cc3)nc12,9.8%
CC(C)Oc1ncnc2c1[nH]c1ccccc12,-25.4%
Cc1cccc(C)c1N1CCN(S(=O)(=O)N2CCOCC2)CC1,-14.9%
CCCCN(Cc1cc2cc(OC)ccc2[nH]c1=O)C(=O)c1ccco1,-17.1%
CC(=O)NCCn1c(SCC(=O)NCCC(C)C)nc2ccccc2c1=O,-0.5%
CCn1c(=NC(=O)CS(=O)(=O)c2ccc(F)cc2)sc2cccc(OC)c21,0.2%
Cc1ccc(-c2nc(CS(=O)CC(=O)N3CCN(c4ccc(F)cc4)CC3)c(C)o2)cc1 (centres undefined),?
O=C(NC1(C(F)(F)F)C(=O)Nc2c1c(=O)[nH]c(=O)n2CCc1ccccc1)c1ccc(Cl)cc1Cl (centres undefined),-11.2%
Cc1ccc(C)c(CSc2nnc(-c3ccccn3)n2N)c1,-8.1%
CC1CC(Nc2ccccc2)c2ccccc2N1C(=O)c1cccnc1 (centres undefined),9.0%
CN(Cc1nccn1C)C(=O)c1ccc2nc(Cc3ccccc3F)oc2c1,-0.1%
Nc1ccc(C(=O)NC2CCSc3ccccc32)cc1[N+](=O)[O-] (centres undefined),9.8%
CCCCNC(=S)N(CCN(CC)CC)Cc1cc2cc3c(cc2[nH]c1=O)OCO3,-3.1%
COCCNC(=O)c1cc(S(=O)(=O)N2CCCCC2)ccc1N1CCOCC1,13.3%
COCC(=O)N1CCC(Oc2ccc(C(=O)N3C[C@H]4CC[C@H]3C4)cc2)CC1,-11.1%
OC1(c2ccc(F)cc2)CCN(Cc2nnnn2Cc2cccs2)CC1,3.7%
COc1cc(-c2noc(C)c2C(=O)NCCCN2CCCC2=O)cc(OC)c1OC,-4.5%
CCC(C)[C@@H](C(=O)Nc1ccc2c(c1)OCO2)N1Cc2ccccc2C1=O (some centres undefined),?
COC(=O)C(NC(C)=O)(Nc1sc2c(c1C(N)=O)CCCC2)C(F)(F)F (centres undefined),13.7%
O=C(CN1CCN(Cc2ccccc2)CC1)Nc1ccc(Br)cc1,-11.7%
Cn1cc(Br)c(C(=O)N2CCCCCC2)n1,-1.0%
COc1cccc(CNS(=O)(=O)c2ccc3c(c2)N(C(C)=O)CCO3)c1,6.7%
CCCCNC(=O)CN(CCc1ccccc1)S(C)(=O)=O,2.9%
CCCN(CCC)CCCNC(=O)c1ccc2c(c1)N(CC)C(=O)c1ccccc1S2=O (centres undefined),4.5%
COC(=O)c1c(NC(=O)COc2ccc(C)cc2Br)sc2c1CCCC2,-3.5%
CCOC(=O)[C@H]1[C@H]2COc3ccc(Cl)cc3[C@@H]2N2C(=O)c3ccc(F)cc3NC(=O)[C@@]12C,-4.8%
Cc1ccc(C(=O)ON=C2CCN(S(=O)(=O)c3ccccc3)CC2)cc1,?
CC1CCCC(NC(=O)NC(=O)COC(=O)c2ccc(O)cc2O)C1C (centres undefined),5.9%
Fc1ccc(CSc2nc3ccccc3[nH]2)cc1,-0.7%
COc1ccc(-c2c(C#N)c(SCC(=O)c3cc4ccccc4oc3=O)nc(C)c2C(=O)Nc2ccccc2)cc1,-23.8%
Cc1ccc(Cn2c(C)nc3ccc([N+](=O)[O-])cc3c2=O)cc1,-19.6%
O=C(O)c1ccc(N/N=C/C2=Cc3ccccc3OC2)cc1,-18.4%
Cn1cccc1C(=O)OCC(=O)Nc1sccc1C#N,-15.9%
Cn1c(SCC#N)nc2ccccc2c1=O,1.2%&-18.3%
Cc1ccc(C(=O)OCC(=O)N2CC(=O)Nc3ccccc32)s1,0.7%
CCn1c(Cn2nnc(-c3ccccc3)n2)nnc1SCC(=O)Nc1cccc(C)c1C,-6.1%
Cc1ccc(S(=O)(=O)CCC(=O)N(C)C2CCCCC2)cc1,25.1%
CCCn1c(SC(C)C(=O)NC2CC2)nnc1-c1ccncc1 (centres undefined),-0.7%
COC(=O)c1ccc2c(=O)n(C3CCCCC3)c(SCC#N)nc2c1,5.6%
COC(=O)c1ccc(N2CCN(C)CC2)c(NC(=O)c2ccc(-c3ccc(Cl)cc3)o2)c1,-20.1%
O=S(=O)(Nc1ccc(N2CCOCC2)cc1)c1ccc(Cl)s1,3.2%
COc1ccc(-c2nc3cnc(N4CCN(C)CC4)nc3n(C3CC3)c2=O)cc1,1.4%
CC(Nc1ccc(Cl)c(Cl)c1)C(=O)NN (centres undefined),-15.7%
O=C(c1cccc(OC2CCN(Cc3ccc(F)cc3)CC2)c1)N1CCCC1,-18.0%

Other records follow.
canonical_smiles,VDR inh
COCc1ccc(C(=O)Nc2ccccc2C(=O)NCc2cccnc2)cc1,-9.4%
CCN(CC)CCn1c(NCc2cc(OC)ccc2OC)nc2ccccc21,?
Cc1onc(-c2ccccc2)c1-c1nc2ccccc2c(=O)o1,?
CCCN1CCC(=O)N(C(CSc2ccc(OC)cc2)c2ccccc2)CC1 (centres undefined),-21.0%
CCN(CC)CCCNC(=O)CSc1nc(-c2ccc(F)cc2)cc(C(F)(F)F)n1,-17.1%
COc1ccc(C(=O)O)cc1NC(=S)NC(=O)Cc1ccc(Cl)cc1,-10.2%
COc1cccc(CC2(CO)CCN(S(=O)(=O)c3ccc(OC)cc3OC)CC2)c1,-2.2%
Cc1ccc2c(CN3CCN(CCO)CC3)cc(=O)oc2c1C,11.6%

Exported with each value named: 2 of the compounds above.
SMILES: COc1cccc(CC2(CO)CCN(S(=O)(=O)c3ccc(OC)cc3OC)CC2)c1
  VDR inh = -2.2%
SMILES: Cc1ccc2c(CN3CCN(CCO)CC3)cc(=O)oc2c1C
  VDR inh = 11.6%

Later entries.
canonical_smiles,VDR inh
COc1ccc(/C=N\N=C2/SC(CC(=O)O)C(=O)N2c2ccc(O)cc2)cc1 (centres undefined),3.9%
CSc1cc(-c2ccccc2)n(C)c(=O)c1C#N,15.5%
CC(=O)Nc1ccc(S(=O)(=O)NC2(C(F)(F)F)C(=O)Nc3c2c(=O)[nH]c(=O)n3-c2ccc(C)c(C)c2)cc1 (centres undefined),11.2%
COc1cccc(NC(=O)Cn2c(=O)n(-c3cccc(OC)c3)c(=O)c3c4c(sc32)CCCC4)c1,-14.0%
COc1ccc(C(=O)COC(=O)Cn2cnc3c2c(=O)n(C)c(=O)n3C)c(OC)c1,-12.2%
O=C(O)C1C2C=CC(C2)C1C(=O)NCc1ccc(Cl)cc1Cl (centres undefined),-7.2%
Nc1ccc(N=Nc2ccccc2)cc1[N+](=O)[O-],5.0%
CCOC(=O)c1cc([N+](=O)[O-])cc([N+](=O)[O-])c1Sc1ncnc2nc[nH]c12,50.1µM*
COc1cc(C(=O)NCc2nnc(SCC(=O)NCc3ccccc3)o2)cc(OC)c1OC,10.9%
CSc1nnc(-c2ccc(NC(N)=S)cc2)o1,-24.1%
Cc1ccc(S(=O)(=O)N(C)c2ccc(C(=O)N3CCOCC3)cc2)cc1,-5.2%
O=C(Cn1ncc2c3ccccc3n(Cc3cccc(Cl)c3)c2c1=O)NC1CCCCCC1,7.8%
Cc1nn(S(=O)(=O)c2ccc(F)cc2)c(C)c1S(=O)(=O)N1CCC(C)CC1,8.4%
COc1ccc(CC(=O)NNC(=S)Nc2ccc(Br)cc2)cc1,8.7%
CN(C)CCCNC(=O)C(=O)Nc1cc2c3c(c1)CC(=O)N3CCC2,2.1%
COC(=O)N/N=C/c1cn(CCOc2ccccc2OC)c2ccccc12,3.1%
CC(OCc1ccccc1)C(NC(=O)OC(C)(C)C)C(=O)NCC1CCCO1 (centres undefined),18.9%
Cc1ccc(NC(=O)C2COc3ccccc3O2)nc1 (centres undefined),5.1%
O=C(Cc1ccc(Cl)cc1)Nc1ccc(S(=O)(=O)Nc2cnc3ccccc3n2)cc1,16.2%
CN(C)c1ccc(/C=N/Nc2cccc(C(=O)O)c2)cc1,-15.9%
COC(=O)C1=C(C)N(Cc2ccco2)C(=O)N[C@@H]1c1ccccc1,-20.9%
CNC[C@@H](C)NC[C@@H](Cc1ccccc1)NCCc1ccccc1,0.4%
COc1cc(NC(=O)COc2ccccc2)c(OC)cc1NC(C)=O,-13.1%
CCOc1ccc(N2CC(C(=O)Nc3ccc4c(c3)OCCO4)CC2=O)cc1 (centres undefined),-8.8%
Cc1cnc(NC(=O)CCNC(=O)c2ccc([N+](=O)[O-])cc2)s1,-18.9%
CCn1c(SCc2nc(N)nc(N3CCCCC3)n2)nc2c1c(=O)n(C)c(=O)n2C,1.9%
COc1ccc(C(CNC(=O)c2cc3ccccc3o2)N2CCCCC2)cc1 (centres undefined),-7.9%
Cc1ccc(C(=O)N2CCCC(CCC(=O)N3CCN(c4ccccn4)CC3)C2)s1 (centres undefined),4.4%
CN(C)c1ccc(C(=S)N2CCN(C(=S)Nc3cccc4ccccc34)CC2)cc1,-16.0%
COc1ccc(C(=O)CNc2ccccc2C#N)cc1,8.0%
CN1CCCN(C(=O)CC2(CC(=O)O)CCCC2)CC1,10.0%
Cc1ccc(CNC(=O)COc2ccccc2-c2ccccc2)cc1,-10.1%

Overlap with the part before: 5 entries, followed by the next part.
canonical_smiles,VDR inh
Cc1ccc(C(=O)N2CCCC(CCC(=O)N3CCN(c4ccccn4)CC3)C2)s1 (centres undefined),4.4%
CN(C)c1ccc(C(=S)N2CCN(C(=S)Nc3cccc4ccccc34)CC2)cc1,-16.0%
COc1ccc(C(=O)CNc2ccccc2C#N)cc1,8.0%
CN1CCCN(C(=O)CC2(CC(=O)O)CCCC2)CC1,10.0%
Cc1ccc(CNC(=O)COc2ccccc2-c2ccccc2)cc1,-10.1%
COC(=O)c1ccc(OCC2c3cc(OC)c(OC)cc3CCN2C(=O)c2ccco2)cc1 (centres undefined),21.1%
CC(Sc1nnc(Cc2ccccc2)o1)C(=O)Nc1ccccc1[N+](=O)[O-] (centres undefined),-9.8%
Cc1ccc(Nc2nc3ccccc3nc2-n2nc(C)cc2C)c(Cl)c1,-10.5%
COC(=O)c1ccccc1NC(=O)c1cnn2cccnc12,-9.0%
CCOC(=O)/C=C1\SCC(=O)N1CC(=O)NC12CC3CC(CC(C3)C1)C2,17.4%
O=C(NC1CCCCC1)C1Cc2ccccc2CN1S(=O)(=O)c1ccc(F)cc1 (centres undefined),12.3%
O=C(O)c1cc(OCc2ccccc2)cc(OCc2ccccc2)c1,16.5%
CCCOC(=O)CSc1nnc(-c2cc(OC)c(OC)c(OC)c2)o1,18.1%
Cc1ccc(NC(=O)Cc2ncc(C(F)(F)F)cc2Cl)cc1Cl,-0.2%
CCCC(=O)Nc1cc(C)c(O)c(-c2nc3ncccc3o2)c1,5.2%
Cc1ccc(NC(=O)CN(C)C(=O)CSc2ncc(C(F)(F)F)cc2Cl)cc1,3.1%
CCOC(=O)c1cc(-c2ccco2)nn1-c1ccc(C)cc1,-13.6%
O=C(CNC(=O)OCc1ccccc1)NC1CCCCCCC1,11.4%
CC(C(=O)Nc1nc2ccccc2[nH]1)N1C(=O)C2CC=CCC2C1=O (centres undefined),-7.5%
CCn1cc(CN2CCCC(CNS(=O)(=O)Cc3ccccc3)C2)cn1 (centres undefined),-17.3%
COc1ccccc1N(CC(=O)Nc1ccccc1C(=O)N1CCCC1)S(C)(=O)=O,11.3%
C=CCSc1nc2c(C(=O)OCC)nnn2c2ccccc12,26.8%
Cc1cccc(Nc2nc(-c3ccc4c(c3)OCCO4)cs2)c1,-12.4%
Cc1c(Cl)c([N+](=O)[O-])nn1CCCC(=O)Nc1cc(Cl)ccc1Cl,0.8%
Cc1ccc(-c2csc3ncnc(SCC(=O)NCc4ccc5c(c4)OCO5)c23)cc1,-2.4%
Cc1ccc(C)c(N2CCN(C(=O)c3ccc(CS(=O)(=O)c4ccc(Br)cc4)o3)CC2)c1,?
CCOc1ccc(-c2cc(C(=O)NCc3ccc(C)cc3)c3ccccc3n2)cc1,-6.0%
COC(=O)c1nc(N)sc1C,-11.0%
CCC(C(=O)NC1CCCCCC1)c1ccccc1 (centres undefined),5.0%
CCC(C)(C)NC(=O)CN(CC1CCCO1)C(=O)CNS(=O)(=O)c1ccccc1 (centres undefined),9.9%
CC(Sc1nc(N(C)C)nc(N2CCOCC2)n1)C(=O)Nc1ccccc1 (centres undefined),7.5%
COc1cccc(OCCn2cc(C(=O)c3ccco3)c3ccccc32)c1,0.8%
